H5N1 antiviral: MDCK cell protection from H5N1 avian flu; cytopathic effect, luminescence, 72 h; hits give high values; no value below 0 was filed and about half of the inactive calls have no number; reference of the scale not given here; inhibition, % at 50 µM; actives 0.07% (n = 96,000); in the data active = inhibition above about 25%
Active calls of the source: *; i = inactive.

SMILES	H5N1 antiviral
CCOc1ccc(OCC)c(NC(=O)CCS(=O)(=O)c2ccc(Br)s2)c1	0.7
COc1ccc(-n2nccc2-c2nn(-c3cccc(OC)c3)c(=O)n(C)c2=O)cc1	1.8
CCN(CC)CCNC(=O)c1ccc(N2CCCCC2)c(NS(=O)(=O)c2ccc(C)cc2)c1	i
Cc1cc(C)nc(-n2nc(C)c(Oc3ccccc3O)c2C)n1	0.6
CCOc1cc(/C=C2\N=C(C)OC2=O)cc(Br)c1OCC(=O)OC	i
Cc1cccc(NC(=O)C2CCCN2S(=O)(=O)c2ccc(F)cc2)c1C (stereo unspecified)	0.4
O=C(Nc1ccc(N2CCN(C(=O)c3ccco3)CC2)cc1)c1ccc2c(c1)OCO2	i
CCN(CCCNC(=O)c1cn(CC)c2ccc(S(=O)(=O)N(C)C)cc2c1=O)c1cccc(C)c1	2.3
O=S(=O)(Nn1cnnc1)c1ccccc1Cl	0.2
COc1ccc(S(=O)(=O)N2CCC(C(=O)NCc3ccccn3)CC2)cc1C	0.4
O=C(NCCCN1CCN(c2cccc(Cl)c2)CC1)C1(S(=O)(=O)c2ccc(Cl)cc2)CC1	1.2
Cc1oc2ccc(O)cc2c1C(=O)c1ccc(Cl)cc1	i
CC1(C)CC(NC(=O)C23CCC(C)(C(=O)C2)C3(C)C)CC(C)(C)N1 (stereo unspecified)	i
Cc1c(CCOC(=O)CC23CC4CC(CC(C4)C2)C3)sc[n+]1CC(=O)c1ccc(Br)cc1	i
Cn1c(=O)n(C)c2cc(C(=O)Nc3ccc4c(c3)OCO4)ccc21	i
Nc1ccc(C#Cc2ccccc2)cc1	0.9
N=c1sccn1CC(=O)N1CCc2ccccc21	i
Clc1ccc(OCc2nn3c(C4CCCCC4)nnc3s2)c(Cl)c1	i
COc1cc(CC(=O)Nc2ncc(C)s2)cc(OC)c1OC	1.0
O=C(c1ccccn1)c1ncc(C(F)(F)F)cc1Cl	0.0
CCC1(c2ccccc2)C(=O)N(C)C(=O)N(C)C1=O	0.1
Fc1ccc(N2CCN(C(c3cccs3)c3nnnn3CCc3ccccc3)CC2)cc1 (stereo unspecified)	0.0
O=C1CSC2=NCN(c3ccccc3)CN12	0.1
COc1cc(-c2nnc(Cn3cc(C(F)(F)F)ccc3=O)o2)cc(OC)c1OC	0.3
Cc1ccc(Cl)cc1NC(=O)c1ccc(CSc2nnnn2C)cc1	i

Sorted by molecular weight (falling): part of the list above.
SMILES	H5N1 antiviral
Fc1ccc(N2CCN(C(c3cccs3)c3nnnn3CCc3ccccc3)CC2)cc1 (stereo unspecified)	0.0
COc1ccc(-n2nccc2-c2nn(-c3cccc(OC)c3)c(=O)n(C)c2=O)cc1	1.8
Clc1ccc(OCc2nn3c(C4CCCCC4)nnc3s2)c(Cl)c1	i
Cc1cc(C)nc(-n2nc(C)c(Oc3ccccc3O)c2C)n1	0.6
N=c1sccn1CC(=O)N1CCc2ccccc21	i
Nc1ccc(C#Cc2ccccc2)cc1	0.9

The listing continues.
SMILES	H5N1 antiviral
O=C(O)C1C2C=CC3(CN(CC(O)COc4ccccc4)C(=O)C13)O2 (stereo unspecified)	0.4
CN(C(=O)c1cccnc1)c1nnc(-c2cccnc2)s1	0.5
Cn1c(SCC(=O)N2CCN(c3ccccc3)CC2)nnc1-c1cc2ccccc2o1	i
O=C(Cc1ccc(-n2c(=O)[nH]c3ccccc3c2=O)cc1)N1CCN(c2ccccc2)CC1	i
O=C(Nc1ccc(N2CCOCC2)cc1)NC1CCCCC1	0.5
Clc1nnc(N/N=C/c2ccccc2)c2ccccc12	i
CCn1c(CSc2ncccn2)nnc1SCC(=O)N1CCc2ccccc21	0.5
Cn1c(Cn2c(=O)sc3ccccc32)nnc1SCc1ccccc1	0.9
COc1ccc2[nH]c(=O)c(CN(C(C)=O)c3cccc(C)c3)cc2c1	1.2
Cc1nc2nc(C)c(CCC(=O)N3CCc4ccccc43)c(C)n2n1	i
N#Cc1ccc(C(c2nnnn2C2CCCC2)N2CCC(Cc3ccccc3)CC2)cc1 (stereo unspecified)	1.1
COc1cccc(CNCCNC(=O)c2ccco2)c1OC	i
CCOC(=O)N1CCC(Nc2c(NCCN3CCN(Cc4ccccc4)CC3)c(=O)c2=O)CC1	1.2
Cc1ccc(C)c2[nH]c(=O)c(CN(CC3CCCO3)S(=O)(=O)c3ccc4c(c3)OCCO4)cc12 (stereo unspecified)	i
COCCCNC(=O)C1C2C=CC3(CN(Cc4ccc(C)cc4)C(=O)C13)O2 (stereo unspecified)	i
O=C(c1csc2c1CCCC2)N1CCN(c2cccc(C(F)(F)F)c2)CC1	i
Cn1nnnc1CCOCCc1nnnn1C	0.2
O=C(/C=C/NNC(=O)c1ccccc1)c1ccccc1	i
CCCCn1c(=N)n(CC(=O)c2ccco2)c2ccccc21	0.9
CCC(=O)N1c2ccc(S(=O)(=O)CCC(=O)Nc3nccs3)cc2CC1C (stereo unspecified)	i
O=C(C1c2ccccc2Oc2ccccc21)N1CCN(c2ccc(Cl)cc2)CC1	i
CCOC(=O)C1CCCN(c2ncnc3c2[nH]c2cccc(OC)c23)C1 (stereo unspecified)	1.9
Cc1ccc(S(=O)(=O)N2CC3(C)CN(S(=O)(=O)c4ccc(C)cc4)CC(C)(C2)C3=O)cc1	0.9
COc1ccc(C2(CNC(=O)CCC(=O)O)CCCC2)cc1OC	0.8
CC(C)(C)c1cccc(Oc2nn[nH]n2)c1	0.1
SMILES	H5N1 antiviral
N#Cc1ccc(OCC(=O)NCCc2ccccn2)cc1	1.1
O=C(C1CCCN(Cc2ccccc2)C1)N1CCCCC1 (stereo unspecified)	i
CCn1c(SCC(=O)OC(C)C)nnc1-c1cccc(Cl)c1	i
c1ccc(OCCOCCSc2ncccn2)cc1	i
CC(C)(C)c1ccc(OCC(=O)O)cc1	i
Cc1cc(C)c[n+](-c2nc([O-])sc2C=O)c1	i
CCOC(=O)c1cc(-c2ccccc2)nn1-c1ccccn1	0.2
O=C(NNC(=O)c1ccccc1-n1cccc1)c1ccc(Cl)c(Cl)c1	i
Cc1ccc(-c2cc(C(F)F)n3ncc(C(=O)Nc4ccc(S(=O)(=O)Nc5ccccc5C)cc4)c3n2)cc1	i
CCOC(=O)N1CCN(c2c(NCc3ccc(N(C)C)cc3)c(=O)c2=O)CC1	2.9
CC1(C)CC(=O)C2=C(C1)N(CC1CCCO1)C(=O)C2(O)C(F)(F)F (stereo unspecified)	1.5
COc1ccc(OCC(=O)N2CCN(c3cccc(C(F)(F)F)c3)CC2)cc1	0.2
NNC(=O)c1nc(-c2ccccc2)n2c1CCCCC2	i
NC(=O)CSc1nnc(COc2ccccc2)n1CCc1ccccc1	0.6
O=C(O)CCCC(=O)Nc1c(F)c(F)c(F)c(F)c1F	i
COC(=O)c1cccc(NC(=O)CSc2nnc(COc3ccc(C#N)cc3)n2-c2ccccc2)c1	i
O=C1c2ccccc2C(=O)N1CC#CCN1CCN(C(c2ccccc2)c2ccccc2)CC1	1.0
O=C(NC(Nc1ncc(S(=O)(=O)c2ccc([N+](=O)[O-])cc2)s1)(C(F)(F)F)C(F)(F)F)c1ccc(Cl)cc1	2.4
CCNC1=C(Cl)C(=O)c2ccccc2C1=O	i
Cc1ccc(S(=O)(=O)N/N=C/c2cc(Br)c(C)o2)cc1	i
Cc1ccc(S(=O)(=O)N2c3ccccc3NC(=O)CC2C)cc1 (stereo unspecified)	i
Cc1ccc(OC(=O)N2CCOCC2)cc1	0.2
COc1ccc(CN(C(=O)c2ccco2)c2ccc(Br)cc2)cc1OC	i
CCOC(=O)CSc1nc2cc(C(=O)N3CCCC3)ccc2c(=O)n1Cc1ccccc1	i
Cc1ccc(CN2C(=O)CCC2C(=O)NC(C)C)cc1 (stereo unspecified)	0.2
SMILES	H5N1 antiviral
Cc1ccccc1C(=O)Oc1ccc(Sc2ccc(O)cc2)cc1	i
CCOCCCN1CC(C(=O)NCCc2ccc(C)cc2)CC1=O (stereo unspecified)	i
CCOC(=O)CN(C(=O)CNC(=O)c1ccco1)C(C(=O)NC1CCCC1)c1ccccc1OCC (stereo unspecified)	0.3
COc1cccc(N2C(=O)CC(Nc3ccc(N4CCOCC4)cc3)C2=O)c1 (stereo unspecified)	i
O=C(CCn1cnc2ccccc2c1=O)Nc1cccc(Cl)c1	1.0
Cc1ccc2c(c1)sc1nc(=O)n(-c3ccc(Cl)cc3)c(=O)n12	i
Cc1cc(Nc2ccc(Cl)cc2)nc(N)n1	i
O=C(NCc1ccc(F)cc1)C1CCN(S(=O)(=O)N2CCCCC2)CC1	1.9
CCOC(=O)N1CCC(n2c(SCC(=O)Nc3nccs3)nc3ccsc3c2=O)CC1	i
CC(C)(C)C(=O)/C=c1\[nH]c(=O)/c(=C\c2ccc(F)cc2)s1	11.2
CCOC(=O)C1=C(O)CSC1=Nc1ccc(Cl)cc1	1.0
COc1ccc([N+](=O)[O-])cc1NC(=S)Nc1ccccc1	0.2
CCc1nn(C)c(-c2n[nH]c(=S)n2N)c1Cl	i
O=C(CSc1nnc(CNC(=O)c2cccs2)o1)NCc1ccc(F)cc1	0.8
c1n[nH]c(SCCCCSc2ncn[nH]2)n1	0.6
O=C(Oc1c(Cl)cc(Cl)c2cccnc12)N1CCCCC1	1.8
CCCn1c(SCC(=O)NCc2ccccc2)nnc1-c1ccncc1	0.4
CC(C)CC(C(=O)O)C(C)CC(=O)Nc1ccn(-c2ccccc2)n1 (stereo unspecified)	i
Cc1ccccc1C1CC(c2ccc(F)cc2)Nc2nc(N)nn21 (stereo unspecified)	1.2
CCCCOc1ccc(/C(N)=N/O)cc1	i
CC(C)(C)N(Cc1cc2ccccc2[nH]c1=O)C(=O)c1cccnc1	1.0
CCOC(=O)C1CCCN(C(=O)CN2C(=O)COc3ccc(C(C)(C)C)cc32)C1 (stereo unspecified)	0.9
CCOC(=O)c1c(C)n(C)c2ccc(OCC(O)CN3C(=O)c4ccccc4S3(=O)=O)cc12 (stereo unspecified)	0.1
Cc1noc(NS(=O)(=O)c2ccc(N3C(=O)c4ccccc4C3=O)cc2)c1C	0.3
Cc1nc2nc(-c3ccc(Cl)cc3)nn2c(C)c1Cl	i
SMILES	H5N1 antiviral
COC(=O)c1c(-c2ccc(F)cc2)noc1N	0.2
CCOC(=O)C1(N(CC)CC)Sc2cc(C)ccc2NC1=O (stereo unspecified)	i
COC(=O)C1CCN(c2c([N+](=O)[O-])cc(C(F)(F)F)cc2[N+](=O)[O-])CC1	i
Cc1csc(-c2cnn(-c3ccccc3)c2NC(=O)c2ccc(C(F)(F)F)cc2)n1	i
Cc1ccc(Nc2nc3ccccc3nc2-n2nc(C)cc2C)cc1	i
O=C(NCc1ccco1)c1cc(-c2ccccn2)nc2ccccc12	3.0
COc1ccc(N(C(=O)c2ccco2)S(=O)(=O)c2cccs2)cc1	i
Cc1cccc(OCCN2CSC(=S)N(C)C2)c1	14.2
C/C(=C\C(=O)c1ccc(Cl)cc1)Nc1ccc(N2CCOCC2)cc1	i
Cc1[nH]c2ccccc2c1C(=O)CSCC(=O)O	1.0
Nc1ncnc2c1ncn2CCN1CCOCC1	i
COCCNC(=O)c1ccc2c(=O)n(Cc3ccco3)c(SCC(=O)NC3CCCC3)nc2c1	1.5
CCOC(=O)Cn1c(=O)n(Cc2ccco2)c(=O)c2ccc(C(=O)NCCc3ccccc3)cc21	i
COc1ncnc2c1oc1nc(CC(C)C)c3c(c12)CC(C)(C)OC3	2.2
CCSc1nnc(-c2cccnc2)n1-c1ccc(C)c(Cl)c1	i
Cn1c(-c2ccc3nc(N)sc3c2)nc2cc(N)ccc21	i
C=CCN1C(=O)/C(=N/n2cnnc2)c2ccccc21	i
Cc1ccc(S(=O)(=O)N2CCOCC2)cc1C(=O)N1CCOCC1	0.6
NC1=NC(=O)/C(=C/c2cccs2)S1	6.2
CCOC(=O)C(C)Oc1cccc2c(=O)n(CC(=O)Nc3cccc(OC)c3)ccc12 (stereo unspecified)	0.6
CC(C)C(=O)Nc1ccc2c(c1)nc1n2CCSC1	i
CCc1ccc(NC(=O)c2cnc3n(c2=O)CCS3)cc1	i
c1ccc(Nc2nc3ccccc3[nH]2)nc1	0.1
C/C(Cn1nc([N+](=O)[O-])cc1C)=N\NC(=O)c1cccc(Br)c1	0.9
COc1cccc(-c2cc(C(=O)NCc3ccc(Cl)cc3)no2)c1	i
SMILES	H5N1 antiviral
C/C(=N\OC(=O)NC(C)C)c1sc(-c2ccccc2)nc1C	i
CCOc1cc(C(=O)Nc2ccc3c(c2)OCO3)ccc1OCCOc1ccccc1Cl	i
CN1C(=O)N(C)C2C1N(C)S(=O)(=O)N2C (stereo unspecified)	i
COc1ccccc1C1C(C#N)=C(N)Oc2cc(C)n(Cc3ccccn3)c(=O)c21 (stereo unspecified)	i
NC(=O)CN1CCN(c2nc(-c3ccc(F)cc3)cs2)CC1	0.1
CCCCCCCCn1c(N2CCN(c3cccc(Cl)c3)CC2)nc2c1c(=O)[nH]c(=O)n2C	i
C(=N\n1cnnc1)/c1ccc(OCc2ccccc2)cc1	i
CCNC(=O)CN(c1ccc(C)cc1)S(=O)(=O)c1ccc(SC)cc1	i
CCCc1cc(-c2nc(-c3ccc(Cl)cc3)cs2)ccn1	i
COc1cc(CNCc2cccs2)ccc1OCc1cccs1	2.0
CCCS(=O)(=O)N1CCC(C(=O)NC2CCC(C)CC2)CC1 (stereo unspecified)	i
O=C(O)Cc1c(O)ccc2ccccc12	0.3
Cc1ccc(CNC(=O)CSc2n[nH]c(N)n2)cc1	0.4
CCCCSc1nnc(CSc2nc3nc(C)cc(C)n3n2)o1	11.2
O=C(c1noc2c1CCCCC2)N1CCOCC1	i

Filtered by structure, those above with a CF3 group.
SMILES	H5N1 antiviral
O=C(c1ccccn1)c1ncc(C(F)(F)F)cc1Cl	0.0
COc1cc(-c2nnc(Cn3cc(C(F)(F)F)ccc3=O)o2)cc(OC)c1OC	0.3
O=C(c1csc2c1CCCC2)N1CCN(c2cccc(C(F)(F)F)c2)CC1	i
CC1(C)CC(=O)C2=C(C1)N(CC1CCCO1)C(=O)C2(O)C(F)(F)F (stereo unspecified)	1.5
COc1ccc(OCC(=O)N2CCN(c3cccc(C(F)(F)F)c3)CC2)cc1	0.2
O=C(NC(Nc1ncc(S(=O)(=O)c2ccc([N+](=O)[O-])cc2)s1)(C(F)(F)F)C(F)(F)F)c1ccc(Cl)cc1	2.4
COC(=O)C1CCN(c2c([N+](=O)[O-])cc(C(F)(F)F)cc2[N+](=O)[O-])CC1	i
Cc1csc(-c2cnn(-c3ccccc3)c2NC(=O)c2ccc(C(F)(F)F)cc2)n1	i

Compound activity from PubChem.

An excerpt; the hit share may differ from the screen's.
